Assay outcomes from PubChem BioAssay.
gsp agonist – gsp mutant agonism | AID 624287 | 340,000 tested, 0.13% active | Potency, µM (doses to about 76.9 µM), for inactives: at the top dose activation (cAMP increase), most hits filed as activators | gsp mutant cells, cAMP HTRF, 30 min; control for the full effect not named in the record; active = well fitted activation curve with a large enough effect; inconclusive = small, poorly fitted or top-dose-only effect, or another doubt; inactive = no such curve, though single readings can be large or run the other way; cell line not stated here;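 note: phosphodiesterase inhibitor Ro 20-1724 added with compounds to block cAMP breakdown; potency is the fitted concentration of half-maximal effect; nearly all actives have a fitted effect of over 60% in size; about a fifth of the inactives were tested at one dose only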
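Cells stably selected in G418 were plated at 2000/well, grown 16-24 hr, then given compounds in DMSO with the PDE inhibitor […] (300 uM solution added) for 30 min at 37C; cAMP was read by HTRF.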
ClpP mod – qHTS Assay for Activators of ClpP; Potency, µM (top dose mostly 57.5 µM), for the others: at the highest dose activity change, negative = active; AID 651965, 2013; 340,000 tested, 1.9% active; purified B. subtilis ClpP, FRET peptide cleavage, 20 min; active = well fitted falling curve with a large enough effect; inconclusive = small, poorly fitted or top-dose-only effect; inactive = no such curve, though single readings can be large or run the other way; note: potency is the fitted concentration of half-maximal effect; the source files actives as falling curves though it sought activators and does not explain the sign; nearly all actives have a fitted effect of over 65% in size; many hits overshoot -100%
Target sequence (P80244 whole entry, looked up): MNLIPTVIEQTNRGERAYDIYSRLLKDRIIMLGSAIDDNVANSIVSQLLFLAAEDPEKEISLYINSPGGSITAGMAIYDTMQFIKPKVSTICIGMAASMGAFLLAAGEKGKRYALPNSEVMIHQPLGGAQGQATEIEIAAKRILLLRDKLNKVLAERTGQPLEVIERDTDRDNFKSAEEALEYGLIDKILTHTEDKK
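FRET quenching reversal measured ClpP activation: 10 microg/mL B. subtilis ClpP at pH 8 with the FRET-FV decapeptide, read at 430 nm after 320 nm excitation. The 20-min minus 0-min signal was scaled between DMSO/no-enzyme wells and ADEP (5.8 microM final).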
Sfp PPTase inh – Sfp phosphopantetheinyl transferase inhibition | Q9F4F7 | Biochemical Sfp PPTase activity, qHTS | Potency, µM, inactives show max response, negative = inhibition, actives largely listed as inhibitors | 310,000 tested, 3.5% active | AID 1490; active = well fitted inhibition curve with a large enough effect; inconclusive = small, poorly fitted or top-dose-only effect, or another doubt; inactive = no such curve, though single readings can be large or run the other way;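 note: the enzyme is Sfp with the accession as filed and its product quenches rhodamine fluorescence; potency is the fitted concentration of half-maximal effect; 0% = enzyme reaction without inhibitor and -100% = no enzyme wells; top concentration of the series not given in the record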
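Sfp 15 nM + cpd, 15 min RT; start w/ rhodamine-CoA 5 uM, BHQ-2-YbbR 12.5 uM (final); 50 mM Hepes pH 7.6, 10 mM MgCl2, 0.01% NP-40, 0.01% BSA; read 525/598 nm at 0 and 30 min.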
Menin MLL FP FL – inhibitors of human menin-MLL interaction, wild-type MLL peptide. Fluorescence polarization, fluorescein-MLL peptide displacement from menin. FP activity change, % at 61.4 µM. 290,000 tested, under 10 active. AID 1766; inconclusive = falling polarisation curve, or a change in total fluorescence; inactive = total fluorescence flat and polarisation flat or rising; no compound was filed as active; the % refers to the polarisation; negative = inhibition;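 note: % of control where 0% means no effect; inhibitors lower the polarisation; unlabelled MLL peptide was the positive control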
TRPV1 potentiator – enhances activation of the human vanilloid receptor TRPV1 | TRPV1-expressing cells, Fluo-8 calcium influx, capsaicin EC20 potentiation; host cell line not named in the record; control for the full effect not named in the record | potentiation, % at 8.33 µM | 320,000 tested, 0.02% active | AID 540277; active means potentiation above 80%; inconclusive means 30% to 80%; inactive means below 30%; note: 0% is about no effect
Target sequence (Q8NER1 whole entry, looked up): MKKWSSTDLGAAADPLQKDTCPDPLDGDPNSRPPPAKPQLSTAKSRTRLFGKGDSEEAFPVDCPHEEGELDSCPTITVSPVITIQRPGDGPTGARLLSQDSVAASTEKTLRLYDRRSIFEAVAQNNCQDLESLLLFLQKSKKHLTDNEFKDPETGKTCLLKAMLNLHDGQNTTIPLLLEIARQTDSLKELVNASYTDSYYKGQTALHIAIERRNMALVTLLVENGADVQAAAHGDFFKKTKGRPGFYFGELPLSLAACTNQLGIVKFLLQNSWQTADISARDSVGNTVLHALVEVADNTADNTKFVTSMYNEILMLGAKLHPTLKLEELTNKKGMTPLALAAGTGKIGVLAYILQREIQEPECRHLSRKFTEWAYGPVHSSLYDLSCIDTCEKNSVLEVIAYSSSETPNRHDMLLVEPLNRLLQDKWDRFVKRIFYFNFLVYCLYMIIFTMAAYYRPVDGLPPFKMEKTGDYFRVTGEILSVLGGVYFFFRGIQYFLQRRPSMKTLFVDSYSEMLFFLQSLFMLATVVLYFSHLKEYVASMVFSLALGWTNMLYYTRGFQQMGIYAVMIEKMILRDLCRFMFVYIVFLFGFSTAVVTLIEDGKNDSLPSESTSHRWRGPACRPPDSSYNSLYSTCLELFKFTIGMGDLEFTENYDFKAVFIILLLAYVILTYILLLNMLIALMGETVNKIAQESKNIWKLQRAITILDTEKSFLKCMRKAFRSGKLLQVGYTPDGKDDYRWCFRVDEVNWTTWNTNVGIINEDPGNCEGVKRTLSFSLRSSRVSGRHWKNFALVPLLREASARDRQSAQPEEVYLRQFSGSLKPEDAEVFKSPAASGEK
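Fluo-8 calcium influx in TRPV1-expressing cells, kinetic read (ex 480/em 520 nm). Compound added and read 3 min for agonist activity, followed by capsaicin at EC20 final and 2 min further read for enhancement.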
gsp antagonist – antagonists of gsp mutant (McCune-Albright syndrome); gsp-mutant cells, cAMP HTRF, 30 min; control for the full effect not named in the record; Potency, µM (top dose mostly 76.9 µM), without a hit: top-dose activity change, negative = inhibition, hits mostly inhibitors; AID 624288; 340,000 tested, 0.4% active; active = falling curve of any shape with a large fitted effect; inconclusive = falling curve, mostly with a smaller effect; inactive = flat or rising curve; cell line not stated here;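 note: intracellular cAMP measured with PDE inhibitor Ro 20-1724 present during compound exposure; potency is the fitted concentration of half-maximal effect; % is set by controls: 0 for no effect and ±100 for the full control effect; nearly all actives have a fitted effect of over 65% in size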
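Cells, 2000/well, grown 16–24 h in DMEM 10% FBS with 0.5 mg/ml G418, then compounds plus […] (300 uM addition stock), 30 min at 37C. cAMP read by HTRF (cAMP-d2 and anti-cAMP antibody-K in lysis buffer) after 30 min RT.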
CtBP-E1A inh – blocks the CtBP interaction with E1A. AlphaScreen GST-E1A/His-CtBP binding, 1536-well; active compounds read low; control for the full effect not named in the record. activity change, % (concentration not given with the values). 340,000 tested, 0.49% active. AID 651724; in the data active means activity change below about -65%; inconclusive means about -30% to -65%; inactive means above about -30%; note: % is set by controls: 0 for no effect and ±100 for the full control effect
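GST-E1A and His-tagged CtBP (125 nM each as 5X stock) were preincubated with pin-transferred compound for 2 h at 37 °C in the dark, then glutathione donor and nickel acceptor beads were added for 1 h before AlphaScreen reading.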
Starred values were filed as active, the others as inactive; ? = inconclusive; . = no result given; & = joins results of further samples; [ ] = remark or other dose.

SMILES	gsp agonist	ClpP mod	Sfp PPTase inh	Menin MLL FP FL	TRPV1 potentiator	gsp antagonist	CtBP-E1A inh
O=C(COC(=O)C1COc2ccccc2O1)c1ccc(F)cc1 (stereo not drawn)	-21%	2.5%	.	.	.	.	10
CC1CCN(C(=O)COC(=O)c2ccc(Cl)nc2)CC1	?	-1.1%	.	.	.	-1%	-6
O=C(NCCc1ccccc1)c1ccc(NC(=O)C2CCCC2)cc1	.	0.7%	.	.	.	4%	6
COc1cccc(-c2nc(CS(=O)CC(=O)NCc3ccc(F)cc3)c(C)o2)c1 (stereo not drawn)	-35%[inhibitor]	-21%	7%	.	3	-8%	.
Cc1cc(Cl)ccc1OC(C)C(=O)OCC(=O)Nc1ccc2[nH]c(=O)[nH]c2c1 (stereo not drawn)	-33%[inhibitor]	-1.0%	.	.	4	-2%	-7
CCc1nc(Nc2ccc(O)cc2)c2oc3ccccc3c2n1	-1%[15.4 µM]	.	-7%	-1.0	-6	-12%	-14
CC(C)COP(=O)(c1ccc(N(C)C)cc1)C(Nc1ccccc1)c1cccnc1 (stereo not drawn)	-7%	4.7%	-1%	4.3	9	9%	-18
CN1CCc2c(c3c(n2C)CCN(C)[C@H]3c2ccccc2F)[C@@H]1c1ccccc1F	.	.	10%	?	-9	.	.
CN1CCN/C1=C(/C(Cl)=C(Cl)Cl)[N+](=O)[O-]	-26%[15.4 µM]	.	-3%	-1.4	-12	9%	2
CCCCc1nnc(NC(=O)Cc2ccc(OC)c(S(=O)(=O)N3CCOCC3)c2)s1	-10%	-0.8%	.	.	6	-14%	-1
O=C(COC(=O)Cc1ccc(F)cc1)NCCc1ccccc1	-3%[15.4 µM]	-2.6%	.	.	-6	11%	-2
O=C(O)C1CSC2(c3ccc(Br)cc3)CCC(=O)N12 (stereo not drawn)	-21%[15.4 µM]	.	21%	20	0	.	28
O=c1[nH]c2cc(Cl)cc(Cl)c2[nH]c1=O	?	?	10%	-0.2	-2	9%	-6
O=C(O)CCn1c(SCc2ccccc2)nc2ccccc21	-36%[inhibitor]	-9.6%	27%	-0.3	7	-17%	4
CN(CCc1ccccc1)C1CCCN(S(=O)(=O)N(C)C)C1 (stereo not drawn)	5%	-1.6%	9%	-8.6	-9	7%	.
O=C(C(=O)N1CCN(c2cccc(Cl)c2)CC1)N1CCCCC1	7%[15.4 µM]	.	2%	0.9	-11	-1%	0
O=C(NCc1ccco1)C1CC(O)CN1C(=O)Nc1ccccc1 (stereo not drawn)	-20%	.	5%	-12	-18	-3%	4
O=C(NCCN1CCOCC1)/C(=C/c1ccccc1)NC(=O)c1ccccc1	-2%[15.4 µM]	-0.8%	12%	-0.8	5	8%	-4
O=C(NCc1ccc(F)cc1)c1cc(-c2ccncc2)nc2ccccc12	1%[15.4 µM]	.	0%	4.8	4	-19%	-7
Cc1ccc(-n2c(SCC(=O)NCC3CCCO3)nc3ccccc3c2=O)cc1 (stereo not drawn)	-57%[inhibitor]	0.2%	.	.	.	-3%	1
CCOC(=O)c1ccc(NS(=O)(=O)c2ccc3c(c2)NC(=O)CCS3)cc1	-29%	2.7%	19%	.	-5	-3%	.
NC(=O)C(Cc1ccccc1)NS(=O)(=O)c1ccc(N2CCCC2=O)cc1 (stereo not drawn)	-10%	-2.4%	14%	4.8	-4	-3%	-19
COc1ccc([C@H]2CC(=O)C=C(c3ccc(OC(F)(F)F)cc3)C2)cc1	-24%	-0.4%	.	.	-10	-2%	.
CC(C)C(=O)Nc1cccc(C(=O)N2CCCCC2C)c1 (stereo not drawn)	-31%[inhibitor]	1.1%	13%	-0.8	?	-1%	0
Oc1cccc2ccc(/C=C/c3c(F)cccc3Cl)nc12	-9%	.	5%	0.9	13	-9%	14

Individual results from the list.
In gsp antagonist, Oc1cccc2ccc(/C=C/c3c(F)cccc3Cl)nc12 reads -9%
In TRPV1 potentiator, O=C(O)CCn1c(SCc2ccccc2)nc2ccccc21 reads 7

Next part
SMILES	gsp agonist	ClpP mod	Sfp PPTase inh	Menin MLL FP FL	TRPV1 potentiator	gsp antagonist	CtBP-E1A inh
O=C(CNC(=O)c1cccc(F)c1)N/N=C/c1cccc([N+](=O)[O-])c1	-4%[15.4 µM]	1.2%	-22%	-2.3	17	-9%	1
COc1ccccc1C(=O)C1CCCN(C(=O)C2CCCC2)C1 (stereo not drawn)	-8%	1.7%	-13%	4.7	-11	11%	.
CC(/C=N/Nc1nc2ccccc2[nH]1)=C\c1ccccc1	?	-23%	-19%	2.9	-11	-12%	3
COc1ccc(CCNS(=O)(=O)c2cccc([N+](=O)[O-])c2)cc1OC	-3%[15.4 µM]	?	17%	0.1	10	6%	-6
COc1cccc(-c2nc(CS(=O)(=O)CC(=O)NCc3ccc4c(c3)OCO4)c(C)o2)c1	-3%	-3.8%	-10%	4.0	0	-8%	0
O=C(CCCN1C(=O)c2cccc3cccc(c23)C1=O)N1CCN(c2ncccn2)CC1	-1%	-28%	1%	-1.2	0	-12%	.
Nn1c(SCC(=O)N2CCCc3ccccc32)nnc1-c1ccc(Cl)cc1	16%	-2.2%	10%	1.1	-3	-8%	-2
O=C(COC(=O)/C=C/c1cccs1)Nc1nc(-c2ccccc2)cs1	14%	.	5%	4.8	7	-2%	-8
COc1cc(NC(=O)COc2cc(O)c3c(c2)OC(C)(C)CC3=O)cc(OC)c1	.	-2.5%	-2%	0.3	24	-23%	-8
Nc1nnc(C(c2ccccc2)c2ccccc2)s1	1%	1.8%	-1%	1.3	?	3%	5
O=C(CSc1n[nH]c(-c2cccs2)n1)N1CCCC1	17%	-29%	.	.	.	8%	-25
O=c1c(O)c(-c2ccccc2)oc2cc(O)cc(O)c12	.	3.7%	-2%	?	.	-15%	-9
CC(C)Nc1nnc(SCC(=O)Nc2ccc3c(c2)C(=O)c2ccccc2C3=O)s1	-28%	?	1%	6.8	4	-5%	4
COc1ccc(C)cc1NC(=O)CCNC(=O)Cn1cnc2ccccc2c1=O	-5%[15.4 µM]	-20%	-2%	-1.8	2	-4%	0
COc1cc2c(=O)n(CCC(=O)NCC3CCCO3)c(=O)n(CC(=O)Nc3ccc(C)cc3)c2cc1OC (stereo not drawn)	-10%	?	3%	-0.1	1	-4%	-2
O=C(CSc1ccc2ccccc2n1)c1ccc2c(c1)OCO2	-8%	-5.1%	-2%	6.6	2	?	9
Cc1cc(C)n(C(=O)c2cccc(S(=O)(=O)N3CCOCC3)c2)n1	9%	-2.3%	-10%	5.0	11	14%	5
Cc1cccc(N2C(=O)CC(Sc3nccc(C)n3)C2=O)c1 (stereo not drawn)	-5%[15.4 µM]	0.4%	11%	-0.4	13	9%	6
N#CCN1CCC/C1=C\[N+](=O)[O-]	7%	-0.6%	5%	-2.4	19	7%	0
CCOC(=O)C1CCN(C(=O)c2ccc(C)o2)CC1	13%	-3.7%	.	.	.	-5%	-5
COCc1cc(CN2CCCC2)c(O)c2ncccc12	-12%	-0.4%	15%	3.0	-1	-6%	-94*
Cc1cc(OCC(=O)NC2CC(C)(C)NC(C)(C)C2)c(C)cc1Br	-11%[15.4 µM]	0.0%	-1%	.	-6	21%	8
COC(=O)c1ccccc1NC(=S)NC(NC(=O)COc1ccccc1)C(Cl)(Cl)Cl (stereo not drawn)	-7%[15.4 µM]	0.2%	4%	2.5	-19	-5%	2
CCCCCNC(=O)c1ccc2c(=O)[nH]c3c(C(=O)NCC4CCCO4)sc(=S)n3c2c1 (stereo not drawn)	8%	1.6%	50µM*	12	8	?	-16
NC(=S)NN=C(Cc1ccccc1)Cc1ccccc1	3%[15.4 µM]	0.4%	5%	-5.6	-14	21%	2
Further records follow.
SMILES	gsp agonist	ClpP mod	Sfp PPTase inh	Menin MLL FP FL	TRPV1 potentiator	gsp antagonist	CtBP-E1A inh
CCOc1ccc(Cl)cc1CNc1nnnn1CC	11%	0.7%	11%	7.0	-7	-2%	.
CC(C)C(C)NC(=O)COc1nc2ccccc2nc1N(C)C1CCCCC1 (stereo not drawn)	16%	.	0%	0.1	4	4%	10
CCCC[C@@H]1CN=C(N)N1CCCC	.	-3.4%	.	.	.	8%	-13
Cc1ccc(C(=O)COc2cc(O)c3c(=O)cc(-c4ccccc4)oc3c2)cc1	1%	1.0%	-32%	-4.4	-3	-7%	.
COC(=O)c1cccc(C23CC4(C2)[C@H](CN(Cc2ccc(-c5ccccc5)cc2)[C@@H]4c2ccccc2)C3c2ccc(C(F)(F)F)cc2)c1 (stereo partly drawn)	?	-8.7%	14%&17%	-1.0&2.3	22	1%	.
COc1cccc(C(=O)NN/C(C)=C/C(=O)C(F)(F)C(F)(F)C(F)(F)F)c1	-3%[15.4 µM]	1.2%	54%[activator]	-0.1	-3	13%	-5
CC1CCN(CC(=O)NCc2ccccc2)CC1	6%	2.0%	1%	-0.4	-8	10%	5
Cc1ccc(NC(=O)c2cc(S(=O)(=O)N3CCc4ccccc43)cn2C)cc1	-42%	-13%	-26%	-0.2	-8	?	-6
O=C(COc1ccc([N+](=O)[O-])cc1)NNC(=O)Nc1ccc([N+](=O)[O-])cc1	17%	-3.1%	-9%	-3.2	0	-11%	3
CCCn1nc(NS(=O)(=O)c2cccc3nonc23)c2cc3cc(C)ccc3nc21	-34%	-3.3%	-2%	.	14	-32%	-22
Cc1ccc(S(=O)(=O)/N=C2/C=C(Sc3ncn[nH]3)C(=O)c3ccccc32)c(C)c1	.	.	3.5µM*	-9.6	11	.	.
CC(=O)Nc1ccc(N2C(=O)CSC2c2ccccc2[N+](=O)[O-])cc1 (stereo not drawn)	8%[15.4 µM]	0.5%	10%	-7.8	1	6%	0
CC12CCC3C(=CCc4cc(O)ccc43)C1CC(=NO)C2O (stereo not drawn)	1%	1.3%	.	.	.	5%	3
COc1ccc(CNC(=O)c2ccccc2NC(=O)C2=C(C)OCCS2)cc1	-73%[inhibitor]	1.3%	.	.	.	.	-3
O=C(O)CCC(=O)Nc1cccc(-c2nc3ccccc3o2)c1	6%[15.4 µM]	-5.8%	1%	-0.7	-8	-13%	0
COc1ccc(-c2cc(=O)c3c(O)c(OC)c(OC)c(OC)c3o2)cc1	-34%[inhibitor]	4.6%	15%	4.7	.	5%	-6
O=C(CCN1C(=O)/C(=C\c2cccs2)SC1=S)Nc1ccccn1	-21%[15.4 µM]	.	11%	?	-2	-18%	-10

Rows were taken by chance (roughly 5.3% active in at least one column).
